Cruzain Triton = cruzain (T. cruzi) inhibition with detergent; P25779; Potency, µM, for the others: max response, negative = inhibition, actives largely listed as inhibitors; AID 1478; purified cruzain, Z-FR-AMC fluorescence, 0.01% Triton; 200,000 compounds, 0.43% hits;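 also: plate controls were neutral wells for no effect and buffer without enzyme for full effect; nearly all actives have a fitted effect of over 40% in size; top concentration of the series not given in the record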
Target sequence (P25779 123-467 limits assumed): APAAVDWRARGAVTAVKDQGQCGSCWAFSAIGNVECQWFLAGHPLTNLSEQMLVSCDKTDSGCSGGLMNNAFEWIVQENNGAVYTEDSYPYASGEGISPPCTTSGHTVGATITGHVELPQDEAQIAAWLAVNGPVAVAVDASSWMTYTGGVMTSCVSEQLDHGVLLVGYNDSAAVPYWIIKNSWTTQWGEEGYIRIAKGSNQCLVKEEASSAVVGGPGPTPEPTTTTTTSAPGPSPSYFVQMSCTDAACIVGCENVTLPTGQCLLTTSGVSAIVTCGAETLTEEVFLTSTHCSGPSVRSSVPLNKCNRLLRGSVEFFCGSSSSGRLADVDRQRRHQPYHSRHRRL
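Z-FR-AMC hydrolysis (2 uM substrate) by cruzain (1.5 nM) monitored kinetically at ex 360/em 450 nm after 15 min room-temperature compound exposure; 0.01% Triton X-100, pH 5.5, 5 mM DTT.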
NS1 inh = inhibitors of influenza NS1 protein function; S. cerevisiae slowed by influenza A NS1, growth recovery by OD600; Potency, µM (highest dose often 46.1 µM), for inactives: at the highest dose activity, positive = more growth; 270,000 compounds, 0.4% hits; active means well fitted rising curve with a large enough effect; inconclusive means small, poorly fitted or top-dose-only effect; inactive means no such curve, though single readings can be large or run the other way; also: nearly all actives have a fitted effect of over 50% in size
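S. cerevisiae expressing influenza A NS1, grown in glucose, washed, then diluted 1:100 into pH 6.0 -URA galactose medium with 23 nl compound. Growth recovery read as OD600; NS1-free strain serves as control.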
RE007 growth inh = less growth of the S. pombe RE007 Vpr strain; S. pombe RE007 Vpr strain, BacTiter-Glo ATP luminescence, 24 h; control for the full effect not named in the record; Potency, µM (doses to about 92.2 µM), without a hit: top-dose activity change, negative = less growth; 360,000 compounds, 0.21% hits; AID 651644; active = well fitted falling curve with a large enough effect; inconclusive = small, poorly fitted or top-dose-only effect; inactive = no such curve, though single readings can be large or run the other way;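 also: % is scaled to controls: 0 for no effect and ±100 for the full control effect; nearly all actives have a fitted effect of over 50% in size; the assay follows cell death caused by Vpr and the record does not say whether a fall means rescue or toxicity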
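Fission yeast RE007 carrying one integrated HIV-1 vpr copy, seeded at OD 0.01 in PMG+AL medium with 23 nL pinned compound. Grown 24 h at 30 degrees; viability read by BacTiter-Glo luminescence after 5 min.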
Cruzain noTriton = blocks cruzain activity in detergent-free assay | Potency, µM, for the others: max response, negative = inhibition, hits mostly inhibitors | purified cruzain, Z-FR-AMC fluorescence, no detergent | P25779 | 200,000 compounds, 2.3% hits;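 also: plate controls were enzyme without inhibitor for no effect and buffer without enzyme for full effect; nearly all actives have a fitted effect of over 40% in size; top concentration of the series not given in the record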
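Detergent-free condition (0.00005% Triton X-100) in acetate buffer pH 5.5 with DTT. 1.5 nM enzyme and compound were pre-mixed 15 min, then 2 uM Z-FR-AMC substrate added; reaction progress from fluorescence change between first and third reads (60 s).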
Marburg entry inh = inhibitors of Marburg virus binding or cell entry; Marburg virus pseudotyped entry inhibition, cell reporter; control for the full effect not named in the record; about a third of the inactives were read at about 46 µM; Potency, µM (series often up to 37.8 µM), for inactives: at the highest dose activity change, negative = inhibition, most hits filed as inhibitors; 300,000 compounds, 1.8% hits; AID 540276; active = well fitted inhibition curve with a large enough effect; inconclusive = small, poorly fitted or top-dose-only effect, or effect the other way; inactive = flat fitted curve, though single readings scatter; tested in HEK293 cells; about a fifth of its hits are not listed in these tables; also: % is scaled to controls: 0 for no effect and ±100 for the full control effect; luciferase read-out
SARS PLP yeast = blocks SARS-CoV papain-like protease in a yeast assay; 330,000 compounds, 0.19% hits; Potency, µM (top dose mostly 32.9 µM), for the others: at the highest dose activity, positive = growth rescue; S. cerevisiae expressing SARS-CoV PLpro, growth rescue; control for the full effect not named in the record; active means well fitted rising curve with a large enough effect; inconclusive means small, poorly fitted or top-dose-only effect; inactive means no such curve, though single readings can be large or run the other way; also: 0% is about no effect; nearly all actives have a fitted effect of over 55% in size; growth read by luminescence after 48 h
LASV entry inh = Lassa virus entry inhibition; 300,000 compounds, 1.2% hits; Lassa virus pseudotype entry inhibition, cell reporter; control for the full effect not named in the record; Potency, µM (top dose mostly 37.9 µM), for inactives: at the top dose activity change, negative = inhibition, most hits filed as inhibitors; active means well fitted inhibition curve with a large enough effect; inconclusive means small, poorly fitted or top-dose-only effect, or effect the other way; inactive means flat fitted curve, though single readings scatter; tested in HEK293 cells; also: % is scaled to controls: 0 for no effect and ±100 for the full control effect; nearly all actives have a fitted effect of over 50% in size; luciferase read-out
StopGo reporter = lowers the luciferase signal of an FMDV 2A StopGo reporter. human cells with a luciferase reporter of 2A StopGo recoding; control for the full effect not named in the record. Potency, µM (highest dose often 57.9 µM), for the others: at the highest dose signal change, negative = less light. 410,000 compounds, 1.2% hits; active = well fitted falling curve with a large enough effect; inconclusive = small, poorly fitted or top-dose-only effect; inactive = no such curve, though single readings can be large or run the other way; tested in HEK293T cells; also: % is scaled to controls: 0 for no effect and ±100 for the full control effect; nearly all actives have a fitted effect of over 45% in size; luciferase light after 4 h
Active calls of the source: *; ? = inconclusive; . = not tested or not shown; & = joins results of further samples; [ ] = remark or other dose. Unless noted, calls follow the shape of the dose curve; as a rule, active = well fitted curve in the direction sought with a large enough effect; inconclusive = small, poorly fitted or top-dose-only effect, or another doubt; inactive = no such curve, though single readings can be large; an effect the other way counts as inactive or inconclusive. Potency is read from the fitted curve at half-maximal effect.

SMILES	Cruzain Triton	NS1 inh	RE007 growth inh	Cruzain noTriton	Marburg entry inh	SARS PLP yeast	LASV entry inh	StopGo reporter
COc1ccc(CN(C2CCCC2)S(=O)(=O)c2ccc(-n3cnnn3)cc2)cc1	1.2%	-3.7%	18.4%	-2.5%	?	.	-23.3%	-11.7%
O=C(/C=C/c1cccc(F)c1)Nc1nccs1	.	.	-0.8%	.	0.1%[46.1 µM]	0.5%	-3.7%	35.5%[activator]
Cc1ccccc1Cn1c(C)c(CNCc2ccccc2)c(C(=O)O)c1C	-0.5%	.	.	-2.6%	2.5%[46.1 µM]	.	-3.1%[46.1 µM]	-3.0%
NC(=O)C[N+]1(CC#CC(O)(c2ccccc2)c2ccccc2)CCCC1	.	.	10.6%	.	-3.3%[46.1 µM]	-1.2%	?	-8.5%
C=CCn1c(SCC(=O)N(CC)CC)nc(O)cc1=O	1.3%	2.51µM*	13.5%	-7.0%	14.2%	2.3%	0.5%	5.8%
Cc1cc(C)cc(NC(=O)CSc2nnc(CNC(=O)c3cccs3)o2)c1	-2.6%	-6.0%	-7.3%	-0.6%	-21.6%	2.7%	2.8%	4.1%
Cc1csc2ncnc(N3CCN(C(=O)Nc4ccc(OC(F)(F)F)cc4)CC3)c12	.	-55.6%	-11.7%	.	.	-15.7%	.	17.8µM*
CCc1ccc(NC(=O)CC2C(=O)N(c3cccc(OC)c3)C(=O)N2C2CCCC2)cc1 (stereo not given)	-4.6%	.	.	2.0%	.	.	?	2.2%
CCCc1nn2c(=O)cc(CSCC(=O)Nc3ccc(C)cc3)nc2s1	.	-1.6%	-7.2%	.	.	0.9%	.	1.5%
CCn1c(SCC(=O)Nc2cccc(NC(C)=O)c2)nnc1-c1ccco1	.	-7.3%	-5.7%	.	0.0%[46.1 µM]	-1.6%	1.5%	-17.4%
CCN(CC)CCn1c(NCc2nc3ccccc3n2Cc2ccccc2)nc2ccccc21	3.0%	2.1%	8.1%	4.7%	?	-5.1%	?	?
CSc1nnc2c3ccccc3n(CCc3ccccc3)c2n1	-7.4%	-11.5%	9.5%	-18.8%	0.58µM*	-1.9%	1.03µM*	?
Cc1cc2ccccn2c1C(=O)c1cccc(F)c1	.	-24.8%	?	.	-12.9%[46.1 µM]	-1.6%	-10.1%	21.5%
O=[N+]([O-])c1cccc(S(=O)(=O)NCCc2cccs2)c1	.	-8.2%	1.1%	.	-2.2%[46.1 µM]	0.5%	-0.7%	66.3%[activator]
O=C1NC(=S)N/C1=C\c1cccc([N+](=O)[O-])c1	-3.1%	-6.5%	4.1%	?	-2.5%	4.6%	-18.5%	.
CCC(=S)/C=C1\Sc2ccccc2N1CCCS(=O)(=O)O	0.1%	8.3%	12.8%	-1.1%	19.9%	0.8%	10.7%	-3.5%
CCN(CCNC(=O)C1CCN(S(=O)(=O)c2cccc3nsnc23)CC1)c1ccccc1	-3.1%	-14.5%	-18.1%	-10.9%	0.0%&-7.9%	-7.8%	-1.7%	-16.7%
CN(C(=O)C1CCN(S(=O)(=O)c2cccs2)CC1)c1ccccc1	.	.	-10.5%	.	-8.6%[46.1 µM]	2.7%	-14.0%[46.1 µM]	0.8%
CCCSc1nnc(Sc2nnnn2-c2ccccc2)s1	0.5%	-47.5%	-17.3%	-6.5%	?	-11.4%	?	?
CCn1nnc(NC(=O)c2ccc([N+](=O)[O-])o2)n1	.	.	-17.4%	.	-0.6%[46.1 µM]	-0.8%	-14.4%	20.2%
Fc1ccc(N2CCN(Cc3cnc(Cl)s3)CC2)cc1	.	-1.1%	7.5%	.	?	2.7%	-2.6%	-23.4%
O=C(OC1CCCCC1=O)c1ccc(F)c(S(=O)(=O)N2CCOCC2)c1 (stereo not given)	.	.	12.9%	.	-12.5%	5.0%	13.1%	-7.0%
CCOC(=O)/C(=N\Nc1ccc(C(C)=O)cc1)c1csc(Nc2ccccc2)n1	-1.6%	2.5%	-1.3%	?	?	11.2%	?	-15.7%
COC(=O)N1CC(C)N(C(=O)OC)CC1C (stereo not given)	4.4%	-6.9%	3.4%	-1.2%	0.3%	-1.8%	0.9%	-7.4%
CCCCOc1ccc(C(=O)NN2C(=O)NC3(CCCCC3)C2=O)cc1OC	.	.	-7.2%	.	15.5%	2.9%	5.0%	1.5%
Cc1cccc(-c2nc(S(=O)(=O)c3ccc(F)cc3)c(NCCCN3CCOCC3)o2)c1	.	-16.4%	-7.8%	.	?	3.7%	?	-10.3%
COc1ccc(C(=O)NCC(=O)OCCCOC(=O)CNC(=O)c2ccc(OC)c(OC)c2)cc1OC	.	-22.8%	-17.8%	.	15.9%	0.7%	1.4%	-26.5%
O=C(NCc1ccccc1)C(=O)Nc1c2c(nn1-c1ccccc1)CSC2	-1.7%	.	.	?	.	.	-11.0%[46.1 µM]	-7.3%
CCCCC(=O)N1CCCC(c2nc(-c3cccc(OC)c3)no2)C1 (stereo not given)	.	2.3%	3.1%	.	.	-0.3%	.	6.8%
Cc1cccc(N(C)C(=O)CN(C)S(=O)(=O)c2ccc3c(c2)c(=O)n(C)c(=O)n3C)c1	.	16.6%	3.5%	.	14.7%[46.1 µM]	1.3%	-6.6%[46.1 µM]	-10.8%
CCCN(CC(=O)Nc1ccccc1C)C(=O)c1cccc(S(=O)(=O)N2CCc3ccccc3C2)c1	.	5.0%	5.4%	.	?	5.7%	?	-6.6%
CN1CCN(S(=O)(=O)c2ccc(-c3ccccc3)cc2)CC1	2.8%	-2.0%	0.3%	-16.6%	-1.3%	1.4%	18.5%	-17.9%
O=C(N[C@@H](Cc1ccccc1)C(=O)NC1CC1)c1ccc(Cl)cc1	.	?	2.9%	.	?	-12.4%	29.5%[46.1 µM]	19.5%
COc1ccccc1N/C(=N/c1nc(C)cc(C)n1)NC(C)=O	3.0%	-4.4%	.	2.0%	-4.4%	-3.9%	.	.
COc1ccc(-c2nnc(C3CCN(S(=O)(=O)c4ccccc4)CC3)o2)cc1	.	-36.2%	-10.8%	.	.	?	.	-18.0%
COc1ccccc1N(C(=O)c1ccco1)C(C(=O)NC1CCCC1)c1ccc(N2CCOCC2)cc1 (stereo not given)	.	-2.5%	3.6%	.	-28.4%[46.1 µM]	0.0%	-28.8%[46.1 µM]	13.2%
COc1ccccc1NS(=O)(=O)c1cccc(C(=O)N/N=C(/C)c2ccc(-n3ccnc3)cc2)c1	.	.	-11.1%	.	?	.	-19.6%[46.1 µM]	?
COc1ccc(-n2cc(CN(C)CCO)c(-c3cccc(F)c3)n2)cc1	.	2.9%	4.5%	.	.	0.3%	.	-3.5%
COc1cc(NC(=O)Nc2ccc(C)cc2)cc([N+](=O)[O-])c1	-3.6%	-1.6%	5.6%	-24.4%	?	-6.2%	?	22.5%
N=C1C(=O)OCC1c1ccccc1NC(=O)c1ccccc1 (stereo not given)	-1.7%	-3.5%	12.7%	2.9%	30.7%	-4.3%	?	-26.9%
O=C(NCCC1=CCCCC1)C1CCN(S(=O)(=O)c2cccs2)CC1	-3.5%	-9.8%	17.7%	-3.8%	-6.2%	2.8%	-5.3%	-18.0%
NC(=S)Nc1ccc(Oc2ccc(NC(N)=S)cc2)cc1	2.9%	14.5%	-16.2%	?	?	-7.8%	-11.9%	.
O=C(COc1ccccc1[N+](=O)[O-])N/N=C/C=C/c1ccco1	0.9%	-2.1%	-4.7%	-7.9%	?	1.9%	?	4.7%
O=C/C(=C\Nc1ccc(S(=O)(=O)CCO)cc1)c1nc2cc(Cl)ccc2o1	.	.	9.6%	.	7.3%[46.1 µM]	-1.0%	1.4%	-12.3%
Cc1ccc(NC(=O)N2CCCC2C(=O)Nc2ccc3c(c2)OCO3)cc1 (stereo not given)	.	2.9%	-6.5%	.	12.5%[46.1 µM]	-1.7%	2.0%	10.1%
Cc1ccc(NS(=O)(=O)c2cc(N)ccc2Cl)c(C)c1	.	6.6%	2.2%	.	.	2.3%	.	5.4%
O=C(Nn1cnnc1)c1cc2cc(Br)ccc2oc1=O	-2.7%	-13.6%	-1.5%	-6.0%	1.4%	0.6%	9.9%	9.5%
Cc1nc(SCC(=O)NCC2CCCO2)c2oc3ccccc3c2n1 (stereo not given)	-0.3%	-14.6%	12.4%	2.4%	4.1%	1.4%	-5.7%	.
CN(C)/C=N/c1nc2nccc(-c3cccnc3)n2n1	.	.	5.9%	.	2.3%[46.1 µM]	-1.3%	-1.8%	0.0%
O=C(CN1C(=O)S/C(=C\c2ccccc2F)C1=O)Nc1ccccc1O	.	-6.6%	2.1%	.	.	-0.3%	.	-6.0%
CC1=C(C)CC(C(=O)NCc2ccc3c(c2)OCO3)C(C(=O)O)C1 (stereo not given)	1.2%	3.6%	-4.1%	-0.1%	-1.2%	7.0%	-1.2%	5.1%
CC(=O)C1=C(N2CCCCC2)CCC1=O	7.7%	-4.3%	12.9%	-3.7%	-29.0%	14.5%	-3.5%	-27.4%
Cc1ccc(CN2CCN(C(=O)C3CCCO3)CC2)cc1 (stereo not given)	5.0%	-15.4%	4.8%	?	6.4%	2.3%	-3.3%	13.3%
OCCN(CCO)c1ccc(C(c2ccc(Cl)cc2)c2ccc(N(CCO)CCO)cc2Cl)c(Cl)c1	-1.7%	14.1µM*	18.6%	?	-0.8%	12.0%	?	-14.1%
CCOC(=O)[C@@H]1[C@H]2COc3ccc(Br)cc3[C@@H]2N2C(=O)N(c3ccc(C(F)(F)F)cc3)C(=O)[C@]12C	.	1.9%	5.1%	.	.	0.7%	.	-24.6%
CC(C)(C)c1onc(OCP(=O)(O)O)c1CC(N)C(=O)O (stereo not given)	-4.2%	2.8%	.	?	?	.	-6.0%&13.8%	.
COc1ccc(-c2nc(CS(=O)CC(=O)N3CCc4ccccc4C3)c(C)o2)cc1 (stereo not given)	-9.2%	-6.8%	-4.1%	-1.9%	-0.9%	5.0%	.	-2.5%
CCOCCCNC(=O)c1cccc(OC2CCN(S(C)(=O)=O)CC2)c1	.	-21.6%	-1.1%	.	.	3.7%	.	76.8%[activator]

Compound activity from PubChem.
